# Compound activity from PubChem BioAssay.
# HPGD block: inhibitors of human 15-hydroxyprostaglandin dehydrogenase (HPGD) | AID 894 | purified HPGD, NADH fluorescence kinetic, PGE2 substrate | P15428 | 4.3% of 150,000 active | Potency, µM, for the others: at the top dose activity change, negative = inhibition, most hits filed as inhibitors; active = well fitted inhibition curve with a large enough effect (not every such curve was filed as active); inconclusive = small, poorly fitted or top-dose-only effect, or another doubt; inactive = no such curve, though single readings can be large or run the other way;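 further: top concentration of the series not given in the record; plate controls included wells without enzyme; inactives centre near -10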
# Target sequence (P15428 whole entry, looked up): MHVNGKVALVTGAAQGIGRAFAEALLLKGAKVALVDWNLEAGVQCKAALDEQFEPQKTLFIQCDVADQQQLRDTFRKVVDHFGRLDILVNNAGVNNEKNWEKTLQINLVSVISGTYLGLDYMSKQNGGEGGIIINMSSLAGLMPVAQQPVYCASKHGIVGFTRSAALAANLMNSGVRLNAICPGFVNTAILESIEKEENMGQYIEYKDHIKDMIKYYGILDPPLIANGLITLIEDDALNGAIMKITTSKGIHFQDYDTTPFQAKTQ
#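 20 nM HPGD preincubated 15 min at room temperature with compound in 50 mM Tris-HCl pH 8, 0.01% Tween 20. Started with 1 mM NAD+ and 30 uM prostaglandin E2; NADH fluorescence (360/450 nm) read 5 times over 30-s intervals, last minus first.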
# Numbers without * were called inactive; ? = inconclusive; & = joins results of further samples. On the % scale 0 is the no-effect control and ±100 the full control effect; potency means the concentration at half of the fitted maximal effect.
compound | HPGD block
O=C(Nc1nnc(C2CC2)s1)c1cccc(S(=O)(=O)N2CC(c3ccccc3)CC2=O)c1 (centres undefined) | -8%
COC(=O)c1cn[nH]c1NC(=S)Nc1ccc(C)cc1Cl | -27%
Cc1cc(C)c(S(C)(=O)=O)c(Oc2cccc(Cl)c2)n1 | -8%
CCNC(=S)NNC(=O)c1cc(-c2cccc(OCC)c2)nc2ccccc12 | -4%
Nn1c(SCC(=O)NC2CCCc3ccccc32)nnc1-c1cccs1 (centres undefined) | -3%
CC1Cc2ccccc2N1C(=O)COC(=O)c1ccc(S(=O)(=O)N(C)C)cc1 (centres undefined) | 2%
CCOC(=O)N1CCN(S(=O)(=O)c2ccc(C(=O)Nc3ccc4c(c3)C(=O)NC4=O)cc2)CC1 | ?
Clc1ccc(-c2n[nH]c3c2CCC3)c(Cl)c1 | 7.1µM*
O=C1CC(N2CCN(C/C=C/c3ccccc3)CC2)C(=O)N1Cc1ccc(N2CCCC2=O)cc1 (centres undefined) | -8%
COC(=O)[C@@H]1C[C@@H]2CC[C@@H](O)C[C@@H]2N1Cc1ccc(-c2ccccc2)cc1 | -7%
C=CCn1c(Br)nc2c1c(=O)n(C)c(=O)n2C | -8%
CCOc1ccc(NC(=O)Cc2c(O)c3ccccc3[nH]c2=O)cc1 | -19%
CCOc1ccccc1N1CCN(S(=O)(=O)c2cccs2)CC1 | -11%
CCOC(=O)CN(C(=O)CN1CCOCC1)c1ccc(Br)cc1 | -11%
CC(C)c1c(C#N)c(N)nc(SCC(=O)c2cc3ccccc3oc2=O)c1C#N | -11%
COc1ccccc1NC(=O)c1ccc(NC(=O)CSc2nnnn2C)cc1 | -26%
COCCn1c(C)cc(C(=O)CSc2cc(C)c3ccccc3n2)c1C | -16%
CCC1CCCCN1C(=O)N[C@@H](CCSC)C(=O)OC (some centres undefined) | -1%
COC(=O)c1c(NC(=O)CSc2ncnc3c2cnn3-c2ccccc2Cl)sc2c1CCCC2 | -16%
COC(=O)c1c(NC(=O)/C=C/C(=O)O)sc(C)c1-c1ccc(C)c(C)c1 | -11%
Cc1cccc(N(CC(=O)NCc2ccccc2)C(=O)Cn2nnc(-c3ccc(C)o3)n2)c1 | -7%
COC(=O)c1cn(NC(=O)c2cc(OC)c(OC)c(OC)c2)c(=O)c2ccccc12 | -3%
CC(/C=C/C(=O)NO)=C\[C@@H](C)C(=O)c1ccc(N(C)C)cc1 | -22%
CCOC(=O)C1CN(S(=O)(=O)c2ccccc2)c2cc(S(=O)(=O)CC)ccc2O1 (centres undefined) | -9%
COc1ccc(C2(O)CCN(C(=O)NC3CCCCC3)CC2)cc1 | -5%
CCN1C(=O)CSc2ccc(C(=O)NCCCN3CCOCC3)cc21 | -8%
CC(C)Oc1ccc(C(=O)NC(=S)Nc2ccc(CN3CCOCC3)cc2)cc1 | -11%
CCCCNC(=O)C(c1ccc(OCC(=O)OC)c(C(=O)OC)c1)N(Cc1ccccc1)C(=O)CCCCCN1C(=O)NC(c2ccc(-c3ccccc3)cc2)C(C(=O)OCc2ccccc2)=C1C (centres undefined) | -9%
Cc1ccc(-c2noc(CCCC(=O)Nc3cccnc3)n2)cc1 | -16%
Cc1cc(N2CCN(C)CC2)nc2ccc(NC(=O)CCC(=O)NCc3ccco3)cc12 | ?
O=C(NC(=S)Nc1ccc(Oc2ccccc2)cc1)c1ccc(Cl)cc1 | -14%
Cc1cccc(-c2nc(CS(=O)CC(=O)NCCCSC3CCCCC3)c(C)o2)c1 (centres undefined) | -15%
CCN(CC)C(=S)SCC(=O)c1c(C)[nH]c2ccccc12 | -24%
CCCNCC1C(Oc2ccc(Cl)cc2)C(=O)N1c1ccccc1C (centres undefined) | -5%
Cc1cc(C(=O)Nc2sc(C)c(C)c2C#N)c(C)o1 | -16%
COc1ccc(C(=O)Nc2ccc3nc4n(c(=O)c3c2)CCCC4)cc1[N+](=O)[O-] | -9%
CCc1ccccc1NC(=O)CCCSc1nc2ccccc2s1 | -18%
O=C(OCCN1C(=O)CCC1=O)c1ccc(S(=O)(=O)N2CCCCC2)cc1 | -1%
O=C1C=C(Nc2ccc(Cl)cc2)C(=O)N1c1ccc(Cl)cc1 | -13%
Cc1cc(C)c2c(c1)NC(c1cc3c(cc1Br)OCO3)C1CC=CC21 (centres undefined) | -1%
CNS(=O)(=O)c1cccc2cccnc12 | -10%
O=C(O)[C@H]1CCCC[C@H]1C(=O)NCCNC(=O)[C@@H]1CCCC[C@@H]1C(=O)O | -11%
CCOC(=O)C(C(=O)OCC)N(C#N)c1nc(SC)nc(N(C)C)n1 | -12%
CSc1nc2nc(C(F)(F)F)cc(-c3ccccc3)n2n1 | ?
O=C(Nc1cccc(S(=O)(=O)Nc2ccc(Cl)cc2)c1)c1cc2c(s1)CCCC2 | 1%
O=c1cc(O)nc(SCc2ccccc2)n1-c1ccc(F)cc1 | 2%
O=C(O)CSc1cc(-c2ccccc2)nc2ccccc12 | 3%
Cn1c(/C(C#N)=C/c2ccc(-c3ccc(S(N)(=O)=O)cc3)o2)nc2ccccc21 | -9%
CCn1cc(C(=O)O)c(=O)c2cc(F)c(N3CCN(S(=O)(=O)c4ccc(NC(=O)OC)cc4)CC3)cc21 | ?
CC(=O)NC1(C(F)(F)F)NC(=O)N(C2CCCCC2)C1=O (centres undefined) | -2%
COc1cccc(CNC2CCCC2)c1 | -6%
Cc1cc2nc(CCN(C(=S)NCC(C)C)C3CCCC3)[nH]c2cc1C | -5%
Cc1cc(/C=N/NC(=O)Cn2c3ccccc3c(=O)c3ccccc32)c(C)n1-c1ccc(Cl)cc1 | ?
CCCc1cc(=O)oc2cc(C)cc(O)c12 | -15%
Cc1cc(C)n(CC(O)COc2ccccc2)n1 (centres undefined) | -17%
O=C(COc1ccc(Cl)cc1)Nc1ccc2c(c1)CCC2 | -13%
Cc1ccc(NC(=O)CSCC(N)=O)cc1C | -1%
C=CCN(CC(=O)NCc1ccc(F)cc1)C(=O)c1csnn1 | 3%
O=C1CCC(=O)N1c1ccc(NCc2ccccc2Cl)c([N+](=O)[O-])c1 | -16%
O=C(c1ccco1)N1CCN(C2CCCC2)CC1 | -14%

# Later entries.
compound | HPGD block
COc1ccccc1CN(Cc1cc2cc(C)ccc2[nH]c1=O)Cc1nnnn1Cc1ccco1 | ?
CC1CCCCN1C(=O)CSc1nnc(-c2ccc(Cl)s2)o1 (centres undefined) | ?
CCC(Sc1ncccc1C(=O)OC(C)C)C(=O)NCc1ccco1 (centres undefined) | 2%
NCCNS(=O)(=O)c1cccc2c(Cl)cccc12 | -8%&1%&-3%
CN(C)c1ccc(NC(=O)COC(=O)c2cc(=O)c3ccccc3o2)cc1 | 0%
CCOC(=O)c1cc(CN2CCOCC2)oc1-c1ccccc1 | -22%
O=C(CSc1nc2cc(Cl)ccc2s1)NC(=O)NCc1ccco1 | -17%
COc1ccc2c(c1)SCC(=O)N2C | -16%
CC1CCCCC1NC(=O)c1ccc(CNc2c(N3CCCC3)c(=O)c2=O)cc1 (centres undefined) | 13µM*
CC1(OC(=O)C2CCCC2)C(=O)C=C2C=C3CCCN3C=C2C1=O (centres undefined) | -16%
CC1CCN(C2=NC(=O)/C(=C/c3cn[nH]c3-c3ccccc3)S2)CC1 | -29%
Cc1cccc(C)c1N1C(=O)c2ccccc2C1=O | -4%
O=C(Nc1nc2c(Cl)ccc(Cl)c2s1)c1ccco1 | ?
CC1(C)Cc2c(sc3ncnc(NNC(=S)NCc4ccccc4)c23)CO1 | -11%
O=C(NC1CCCCC1)N1CCC(c2nc3ccccc3[nH]2)CC1 | -11%

# Next part:
Compound | HPGD block
O=C(O)CCCC(=O)NNc1ncnc2ccccc12 | -14%
C=CCNC(=S)NNC(=O)c1cccc2ccccc12 | -8%
C=CCn1c(C)cc(C(=O)COc2ccc(C)nc2[N+](=O)[O-])c1C | -17%
Cc1ccc(S(=O)(=O)/N=C2/NC(=O)/C(=C/c3ccc(Br)o3)S2)cc1 | 14µM*
Cc1ccc(C(=O)Nc2c(C#N)c(C)c(C)n2Cc2ccccc2)cc1 | -8%
O=C(CN1CCOCC1)Nc1ccc(S(=O)(=O)N2CCCCCC2)cc1 | -8%
CC(C)[C@H](NC(=O)NCc1ccco1)C(=O)O | -3%
Cn1cc(Cl)c(C(=O)N(Cc2ccccc2)c2ccccn2)n1 | -10%
CCOC(=O)C1CCCN(Cc2ccc3c(c2)OCO3)C1 (centres undefined) | 6%
CCSc1nnc(NC(=O)CSc2nnc(Cc3cccn3C)n2-c2ccc(C)cc2)s1 | 2%
O=C(NCc1ccco1)c1ccc(Cn2c(=O)c3ccccc3n(Cc3cccc(F)c3)c2=O)cc1 | -26%
Cc1cccc2cc(CN(Cc3ccc(F)cc3)C(=O)N3CCOCC3)c3nnnn3c12 | -11%
CCCCn1nc2cc(C(=O)NCC34CC5CC(CC(C5)C3)C4)ccc2c1OC | ?
N#C/C(=C(/N)Sc1ccc(N)cc1)c1ccccc1C(F)(F)F | -10%
O=C(O)CC1Sc2ccccc2NC1=O (centres undefined) | -12%
COC(=O)C(C)n1cnc2c(nnn2-c2cccc(Cl)c2)c1=O (centres undefined) | -22%
Fc1ccc(NC(=S)N/N=C/c2cccc(Br)c2)c(F)c1 | -19%
CC(C)N(C(=O)Cn1c(SCC(=O)Nc2nccs2)nc2ccccc21)C(C)C | -4%
Cc1cc(Br)c(NC(=O)COC(=O)C2CC2C)c(Br)c1 (centres undefined) | -21%
COc1ccc(C2=NOC3(CC(=O)N(c4ccc(F)cc4)C3=O)C2)c(OC)c1 (centres undefined) | -5%
CC(=O)Nc1sc2c(c1CN1CCN(c3ccccn3)CC1)CCCC2 | -16%
Cc1nn(Cc2ccc(C(=O)NC3CCCCC3)o2)c(C)c1Br | -7%
CN(c1ccccc1)S(=O)(=O)c1cc(C(=O)N2CCN(c3ccccn3)CC2)ccc1Cl | -10%
O=C(COc1ncnc2cc([N+](=O)[O-])ccc12)NCc1ccc2c(c1)OCO2 | -17%
COC(=O)C1=C(C(=O)c2ccc(C)cc2)C(c2ccc(O)c(OC)c2)n2nnnc2N1 (centres undefined) | -6%
COc1ccc(NC(=O)Cn2nnc(-c3ccccc3F)n2)cc1 | 0%
O=C(c1ccccn1)N1N=C2/C(=C/c3ccc(F)cc3)CCCC2C1c1ccc(F)cc1 (centres undefined) | -3%
C=CCn1c(C)cc(C(=O)CN2C(=O)NC3(CCCc4ccccc43)C2=O)c1C (centres undefined) | -6%
O=C(NNc1nc2ccccc2s1)Nc1ccccc1 | ?
O=c1nc(C(F)(F)F)nc2ccccn12 | -13%
CN(c1ccccc1)c1cc(=O)[nH]c(=O)[nH]1 | 1%
COc1ccccc1CNC(=O)c1ccccc1N(C)S(C)(=O)=O | -14%
O=C(NCc1cc(F)cc2c1OCCO2)[C@H]1C[C@@H]1[C@H](NP(=O)(c1ccccc1)c1ccccc1)c1ccccc1 | -19%
COc1cccc(OCCc2c(C)n[nH]c2C)c1 | -6%
C=CCSc1nnc(-c2cc3c(s2)-c2ccccc2CC3)o1 | ?
COc1ccc(-c2ccc(CCC(=O)O)n2CC(C)C)cc1 | ?
O=[N+]([O-])c1ccc(-n2nncc2-c2ccc(Cl)cc2)cc1 | -9%
Cc1ccc(Nc2oc(C)nc2C#N)cc1 | -7%
O=C(COC(=O)Cc1ccc(-c2ccccc2)cc1)NCc1ccccc1 | -6%
O=C(Cn1nnc(-c2ccncc2)n1)N1CCc2ccccc21 | 4%
CCOCCc1nnc(NC(=O)c2ccc(OC)c(OC)c2)s1 | -8%
Cc1ccc(CNC(=O)CN(C)S(=O)(=O)c2cccc3cccnc23)cc1 | -5%
N#CC(C#N)=C1C=CC=CN1/C(=C\c1ccccc1)C(=O)c1cccs1 | ?
C=CCN(c1ccc(C(=O)Nc2ccc(C)c(C)c2)cc1)S(C)(=O)=O | -3%
CCOC(=O)C1CCCN(C(=O)c2ccc(OCC)cc2)C1 (centres undefined) | 14µM*
Cc1ccccc1Nc1nc2ccccc2s1 | -16%
O=C(CCCn1nnc(-c2cccnc2)n1)c1ccc(F)cc1 | -1%
O=C(c1cccc(Cl)c1)N1CCCC(c2ccc(Cl)cc2)=N1 | -21%
Cc1ccc(S(=O)(=O)N(Cc2ccc(F)cc2)Cc2ccco2)cc1 | -15%
Cc1ccccc1C(=O)O/N=C(\N)c1cccc([N+](=O)[O-])c1 | 2.8µM*
CC1=NN(C(=O)Cc2ccccc2)C(O)(c2cccnc2)C1 (centres undefined) | -13%
Cc1cc2c(cc1C)NC(c1cccnc1)C1=C(CC(C)(C)CC1=O)N2 (centres undefined) | -8%
CN(c1ccccc1)S(=O)(=O)c1ccc(NC(=O)c2ccc(-c3ccccc3)cc2)cc1 | -30%
Cc1cccc(C)c1NC(=S)NN1CCN(C)CC1 | -14%
C=CCOc1ccc2cccc(/C=N/NC(=O)c3cc4cc([N+](=O)[O-])ccc4s3)c2c1 | 0%
CCOC(=O)N1CCC(NC(=O)CCC(=O)N2CC(C)Oc3ccc(Cl)cc32)CC1 (centres undefined) | -9%

# An excerpt (hit frequency here may not be typical).
